c-Myc SMM – binds human c-Myc on microarray; P01106; small molecule microarray, His-c-Myc binding, anti-His fluorescence; calls only; actives 1.5% (n = 17,000); AID 624141;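 active means spot fluorescence over background with P-value below 7% in all four replicate spots, showing protein binding; compounds were printed on slides so no solution concentration is given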;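 further: score is binary with 100 for all four spots passing and 0 otherwise; about 2 pmol printed per array spot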
STAT3 SMM – binders of human STAT3 | Small molecule microarray, His-STAT3 binding, anti-His fluorescence | AID 624138 | actives 0.2% (n = 17,000) | calls only | P40763;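 active means compounds whose four printed spots each show fluorescence over background unusually high for their array block, chance value under 7%; compounds were printed on slides so no solution concentration is given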;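 further: about 2 pmol printed per array spot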
Target sequence (P40763 whole entry, looked up): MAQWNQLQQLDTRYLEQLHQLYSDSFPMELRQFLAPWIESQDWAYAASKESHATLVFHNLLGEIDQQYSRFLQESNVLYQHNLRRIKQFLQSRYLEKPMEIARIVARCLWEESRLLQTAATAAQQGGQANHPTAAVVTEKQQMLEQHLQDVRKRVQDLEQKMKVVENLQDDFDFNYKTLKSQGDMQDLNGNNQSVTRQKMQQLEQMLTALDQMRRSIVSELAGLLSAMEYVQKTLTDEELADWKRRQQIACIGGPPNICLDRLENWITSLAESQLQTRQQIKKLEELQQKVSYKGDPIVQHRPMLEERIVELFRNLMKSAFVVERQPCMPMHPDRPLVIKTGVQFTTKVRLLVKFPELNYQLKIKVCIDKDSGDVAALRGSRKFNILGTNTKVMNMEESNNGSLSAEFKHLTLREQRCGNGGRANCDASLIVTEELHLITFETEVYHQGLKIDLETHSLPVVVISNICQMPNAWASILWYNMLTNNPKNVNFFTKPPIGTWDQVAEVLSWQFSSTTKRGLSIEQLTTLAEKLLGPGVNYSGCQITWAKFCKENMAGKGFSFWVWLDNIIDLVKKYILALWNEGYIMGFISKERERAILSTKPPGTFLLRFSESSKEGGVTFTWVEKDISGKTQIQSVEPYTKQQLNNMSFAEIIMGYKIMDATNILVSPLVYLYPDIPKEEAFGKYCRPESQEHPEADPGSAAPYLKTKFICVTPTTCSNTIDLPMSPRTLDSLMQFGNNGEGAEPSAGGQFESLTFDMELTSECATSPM
ID4 SMM – ID4 (human) binding; P47928; actives 1.2% (n = 31,000); small molecule microarray, Flag-ID4 binding, fluorescence F/B; calls only;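 active means spot signal over background at p below 0.07 in all four prints; compounds were printed on slides so no solution concentration is given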;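 further: a binder raises fluorescence above local background on the spot; about 2 pmol printed per array spot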
Target sequence (P47928 whole entry, looked up): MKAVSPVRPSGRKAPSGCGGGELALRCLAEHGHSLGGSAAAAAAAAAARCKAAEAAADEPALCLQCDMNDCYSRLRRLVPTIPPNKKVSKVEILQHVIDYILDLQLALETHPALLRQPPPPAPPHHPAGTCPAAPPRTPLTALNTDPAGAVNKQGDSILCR
p53 mut binder – binds human mutant p53 on microarray; small molecule microarray binding, anti-GST fluorescence; calls only; actives 0.4% (n = 17,000); AID 624136;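 active means compounds whose four printed spots each glow above background more than chance allows, each with a p-value under 7%; compounds were printed on slides so no solution concentration is given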;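 further: about 2 pmol printed per array spot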
Calls only; i = inactive; x = no result given; + = active, no number.

| compound | c-Myc SMM | STAT3 SMM | ID4 SMM | p53 mut binder |
| --- | --- | --- | --- | --- |
| COc1ccc(CN(C)C[C@H]2Oc3ccc(NC(=O)C4CC4)cc3CC(=O)N([C@@H](C)CO)C[C@H]2C)cc1 | i | i | i | i |
| COc1ccc(CC(=O)Nc2cc(C)ccc2O)cc1OC | i | i | i | i |
| CC(=O)NCCCC[C@@H]1NC(=O)[C@@H]2C[C@H](C(=O)O)[C@H](c3ccc(O)cc3)N2C1=O | i | i | i | i |
| C[C@@H]1CN([C@@H](C)CO)C(=O)c2cc(NC(=O)CCCN(C)C)ccc2O[C@H]1CN(C)Cc1ccc(C(=O)O)cc1 | i | i | i | i |
| Cc1ccc2nc(-c3ccccn3)cc(C(=O)Nc3ccc(S(=O)(=O)N4CCOCC4)cc3)c2c1 | i | i | + | i |
| C[C@@H]1CCCCO[C@@H](CN(C)S(=O)(=O)c2cn(C)cn2)[C@@H](C)CN([C@H](C)CO)C(=O)c2cc(NS(C)(=O)=O)ccc2O1 | i | i | i | i |
| C[C@@H]1CN([C@H](C)CO)C(=O)c2cccc(NC(=O)c3ccncc3)c2O[C@H]1CN(C)C(=O)Nc1ccc(C(F)(F)F)cc1 | i | i | i | i |
| COc1cc(/C=C/C(=O)NCCc2ccc(O)cc2)ccc1O | i | i | x | i |
| C[C@@H]1CN([C@@H](C)CO)C(=O)Cc2cc(NC(=O)NC3CCCCC3)ccc2O[C@@H]1CN(C)S(=O)(=O)c1ccccc1 | i | i | i | i |
| C[C@H]1CN([C@@H](C)CO)C(=O)CCCn2cc(nn2)CO[C@@H]1CN(C)C(=O)Nc1ccccc1F | i | i | i | i |
| C[C@H](CO)N1C[C@H](C)[C@H](CN(C)Cc2ccccc2)OCCCC[C@H](C)Oc2ccc(NS(=O)(=O)c3cccs3)cc2C1=O | i | i | i | i |
| C[C@@H]1CN([C@@H](C)CO)C(=O)c2cc(NC(=O)c3ccncc3)ccc2O[C@H]1CN(C)C(=O)Nc1ccccc1 | i | i | i | i |
| C[C@@H]1CN([C@@H](C)CO)C(=O)c2cc(NC(=O)c3ccccc3)ccc2O[C@@H](C)CCCCO[C@@H]1CN(C)S(=O)(=O)c1ccc(Cl)cc1 | i | i | x | i |
| COc1cc(NC(=O)CS(=O)(=O)Cc2ccccc2)c(OC)cc1Cl | i | i | i | i |
| COC(=O)CSc1ncnc2scc(-c3ccc(Cl)cc3)c12 | i | i | i | i |
| CCCN(C)C[C@@H]1OCCCC[C@@H](C)Oc2ccc(NS(=O)(=O)c3ccc(OC)cc3)cc2C(=O)N([C@@H](C)CO)C[C@@H]1C | i | i | i | i |
| Nc1nnc(SCC(=O)Nc2ccc(Br)cc2Cl)n1-c1ccccc1 | i | i | i | i |
| O=C(CSc1nc2c(c(C(F)(F)F)n1)CCc1ccccc1-2)Nc1c(F)cc(F)cc1Br | i | i | i | i |
| CNC[C@@H]1Oc2c(NC(=O)C3CCOCC3)cccc2C(=O)N([C@@H](C)CO)C[C@@H]1C | i | i | i | i |
| C[C@@H]1CN([C@H](C)CO)C(=O)Cc2cc(NS(=O)(=O)c3cn(C)cn3)ccc2O[C@@H]1CN(C)S(=O)(=O)c1ccc(Cl)cc1 | i | i | i | i |
| Cc1noc(C)c1S(=O)(=O)Nc1ccc2c(c1)CC(=O)N([C@@H](C)CO)C[C@H](C)[C@H](CN(C)C)O2 | i | i | i | i |
| C[C@@H]1CN([C@@H](C)CO)C(=O)c2cccc(NS(=O)(=O)c3cccs3)c2O[C@H]1CN(C)S(=O)(=O)c1ccc(Cl)cc1 | i | i | i | i |
| C[C@@H]1CCCCO[C@@H](CN(C)C(=O)c2ccccc2)[C@H](C)CN([C@H](C)CO)C(=O)c2cc(NS(C)(=O)=O)ccc2O1 | i | i | i | i |
| Cc1ccc(S(=O)(=O)N(CC(=O)Nc2ccccc2C)C2CCCCC2)cc1 | i | i | i | i |

Complete entries, looked up by structure. Order of screens: c-Myc SMM	STAT3 SMM	ID4 SMM	p53 mut binder
Profile of CCCN(C)C[C@@H]1OCCCC[C@@H](C)Oc2ccc(NS(=O)(=O)c3ccc(OC)cc3)cc2C(=O)N([C@@H](C)CO)C[C@@H]1C → i	i	i	i
Profile of COC(=O)CSc1ncnc2scc(-c3ccc(Cl)cc3)c12 → i	i	i	i

Limited to c-Myc SMM and STAT3 SMM, for two of the compounds above:
| SMILES | c-Myc SMM | STAT3 SMM |
| --- | --- | --- |
| C[C@@H]1CN([C@H](C)CO)C(=O)c2cccc(NC(=O)c3ccncc3)c2O[C@H]1CN(C)C(=O)Nc1ccc(C(F)(F)F)cc1 | i | i |
| O=C(CSc1nc2c(c(C(F)(F)F)n1)CCc1ccccc1-2)Nc1c(F)cc(F)cc1Br | i | i |

More structures follow:
| compound | c-Myc SMM | STAT3 SMM | ID4 SMM | p53 mut binder |
| --- | --- | --- | --- | --- |
| C[C@@H]1CN([C@H](C)CO)C(=O)c2cccc(NC(=O)c3ccncc3)c2O[C@H]1CN(C)S(=O)(=O)c1ccc(Cl)cc1 | i | i | x | i |
| Cc1noc(C)c1S(=O)(=O)Nc1ccc2c(c1)C(=O)N([C@@H](C)CO)C[C@@H](C)[C@@H](CN(C)C(=O)Nc1ccccc1)O2 | i | i | i | i |
| C[C@H](CO)N1C[C@H](C)[C@H](CN(C)Cc2ccncc2)OCc2cnnn2CCCC1=O | i | i | i | i |
| CCOC(=O)CNC(=O)c1cc(C)on1 | i | i | i | i |
| C[C@@H]1CCCCO[C@@H](CN(C)C(=O)C2CCCCC2)[C@H](C)CN([C@@H](C)CO)C(=O)c2cc(NS(=O)(=O)c3ccccc3)ccc2O1 | i | i | i | i |
| C[C@@H]1CN([C@@H](C)CO)C(=O)Cc2cc(NS(C)(=O)=O)ccc2O[C@H]1CN(C)S(=O)(=O)c1cccs1 | i | i | i | i |
| C[C@@H]1CN([C@H](C)CO)C(=O)Cc2cc(NC(=O)Cn3cnnn3)ccc2O[C@H]1CN(C)S(=O)(=O)c1cn(C)cn1 | i | i | x | i |
| COc1ccc(CN(C)C[C@@H]2Oc3ccc(NC(=O)Cc4ccccc4)cc3CC(=O)N([C@@H](C)CO)C[C@H]2C)cc1 | i | i | i | i |
| COC(=O)c1c(NC(=S)Nc2c(C)nn(Cc3c(F)c(F)c(F)c(F)c3F)c2C)sc(C)c1-c1ccccc1 | i | i | i | i |
| C[C@H](CO)N1C[C@H](C)[C@@H](CN(C)Cc2ccc(-c3ccccc3)cc2)Oc2ccc(NC(=O)Nc3cccc4ccccc34)cc2CC1=O | i | i | x | i |
| COc1cccc2cc(C(=O)C3C(=O)C(=O)N(CCc4ccccc4)C3c3cccnc3)oc12 (configuration not stated) | i | i | i | i |
| C[C@H]1CN([C@@H](C)CO)C(=O)c2cc(N(C)C)ccc2O[C@@H]1CN(C)S(=O)(=O)c1cn(C)cn1 | i | i | i | i |

(next part)
SMILES,c-Myc SMM,STAT3 SMM,ID4 SMM,p53 mut binder
CCCCC[C@H](O)/C=C/[C@H]1C=CC(=O)[C@@H]1C/C=C\CCCC(=O)O,i,i,x,i
C[C@@H]1CCCCO[C@H](CN(C)S(=O)(=O)c2cccs2)[C@@H](C)CN([C@@H](C)CO)C(=O)c2cc(NC(=O)Nc3ccc4c(c3)OCO4)ccc2O1,i,i,x,i
CSc1nsc(SCC(=O)OC2CC3CCC2(C)C3(C)C)n1 (configuration not stated),i,i,i,i
Cc1nnc(N2C(=O)C(=O)C(C(=O)c3ccco3)C2c2cccc(Oc3ccccc3)c2)s1 (configuration not stated),i,i,i,i
C[C@@H]1CN([C@@H](C)CO)C(=O)c2cc(NS(C)(=O)=O)ccc2O[C@@H](C)CCCCO[C@@H]1CN(C)C(=O)Nc1ccc(C(F)(F)F)cc1,i,+,i,i
C[C@@H]1CCCCO[C@H](CN(C)S(C)(=O)=O)[C@@H](C)CN([C@@H](C)CO)C(=O)c2cc(NC(=O)Nc3ccccc3)ccc2O1,i,i,i,i
CCOCC(O)CS(=O)(=O)c1ccccn1 (configuration not stated),i,i,i,i
C[C@H](CO)N1C[C@H](C)[C@@H](CN(C)C(=O)Nc2ccc(C(F)(F)F)cc2)Oc2c(NC(=O)Nc3cccc4ccccc34)cccc2C1=O,i,i,i,i
COc1ccc(Nc2nc(Nc3ccc(OC)cc3)nc(Sc3nncn3C)n2)cc1,i,i,i,i
C[C@@H]1CN([C@H](C)CO)C(=O)c2cc(NS(=O)(=O)c3ccc(F)cc3)ccc2O[C@@H](C)CCCCO[C@@H]1CN(C)S(=O)(=O)c1ccccc1,i,i,x,i
CO[C@H]1C[C@@H]2CC[C@@H](C)[C@@](O)(O2)C(=O)C(=O)N2CCCC[C@H]2C(=O)O[C@H]([C@H](C)C[C@@H]2CC[C@@H](O)[C@H](OC)C2)CC(=O)[C@H](C)/C=C(\C)[C@@H](O)[C@@H](OC)C(=O)[C@H](C)C[C@H](C)/C=C/C=C/C=C\1C,i,i,x,i
Cc1noc(C)c1NC(=O)N(C)C[C@@H]1OCCCC[C@H](C)Oc2ccc(NS(=O)(=O)c3cn(C)cn3)cc2C(=O)N([C@@H](C)CO)C[C@H]1C,i,i,i,i
C[C@@H]1CN([C@H](C)CO)C(=O)c2cccc(NC(=O)c3ccc(-c4nccs4)cc3)c2O[C@@H]1CN(C)Cc1ccc(C(=O)O)cc1,i,i,x,i
Cc1ccc(-c2nn(C)c(=O)c3ccccc23)cc1CNC(=O)CN1C(=O)c2ccccc2C1=O,i,i,i,i
C[C@H](CO)N1C[C@H](C)[C@@H](CN(C)S(=O)(=O)c2cn(C)cn2)Oc2c(NC(=O)c3ccncc3)cccc2C1=O,i,i,i,i
COC(=O)C(CC#Cc1ccc2c(c1)[C@]1(C(=O)N2)[C@H](C(=O)O)[C@H]2C(=O)O[C@H](c3ccccc3)[C@H](c3ccccc3)N2[C@@H]1c1ccc(OCCO)cc1)C(=O)OC,i,i,i,i
C[C@@H]1CN([C@@H](C)CO)C(=O)c2cc(NC(=O)c3ccncc3)ccc2O[C@@H](C)CCCCO[C@H]1CN(C)S(=O)(=O)c1cn(C)cn1,i,i,x,i
C=C[C@@]12COC(=O)C(=C)C1[C@@H](O)[C@H](C(=C)C(=O)OC)[C@@H](OC(=O)C(=C)CO)C2 (some centres not stated),i,i,i,i
C[C@H]1CN([C@@H](C)CO)C(=O)CCCn2cc(nn2)CO[C@@H]1CN(C)C(=O)Nc1ccnc(N2CCOCC2)c1,i,i,i,i
CCOC(=O)CSc1ncc(-c2ccccc2)nn1,i,i,i,i
C[C@@H]1CN([C@@H](C)CO)C(=O)CCCn2cc(nn2)CO[C@H]1CN(C)C(=O)Nc1cccc2ccccc12,i,i,i,i
C[C@H]1CCCCO[C@@H](CN(C)CC2CCCCC2)[C@@H](C)CN([C@@H](C)CO)C(=O)c2cc(NS(C)(=O)=O)ccc2O1,i,i,x,i
C[C@H](CO)N1C[C@H](C)[C@H](CN(C)S(=O)(=O)c2cn(C)cn2)Oc2ccc(NC(=O)Nc3ccccc3)cc2CC1=O,i,i,i,i
CCO[C@H]1OC(C(=O)NCc2nc3ccccc3[nH]2)=C[C@@H](c2csc3ccccc23)[C@@H]1CCCO,i,i,i,i
O=C(CC(C(=O)O)N1CCOCC1)Nc1ccccc1 (configuration not stated),i,i,i,i
C=C1C(=O)O[C@H]2CC(C)C3CC[C@@]4(C)O[C@@]34CC12 (some centres not stated),i,i,i,i
COc1ccc(NC(=O)Nc2ccc3c(c2)CC(=O)N([C@@H](C)CO)C[C@@H](C)[C@@H](CN(C)S(=O)(=O)c2ccc(F)cc2)O3)cc1,i,i,x,i
CSc1cccc(NC(=O)C(C)N(c2ccc(C)cc2)S(C)(=O)=O)c1 (configuration not stated),i,i,i,i
CC(C)NC(=O)Nc1ccc2c(c1)C(=O)N([C@@H](C)CO)C[C@@H](C)[C@@H](CN(C)S(=O)(=O)c1ccc(Cl)cc1)OCCCC[C@@H](C)O2,i,i,x,i
CNC[C@@H]1OCCCC[C@H](C)Oc2ccc(NS(=O)(=O)c3ccccc3)cc2C(=O)N([C@H](C)CO)C[C@@H]1C,i,i,i,i
C[C@H]1CN([C@@H](C)CO)C(=O)CCCn2nncc2CO[C@H]1CN(C)C(=O)Nc1ccc(-c2cccs2)cc1,i,i,x,i
C[C@H](CO)N1C[C@H](C)[C@@H](CN(C)C(=O)Nc2ccc3c(c2)OCO3)Oc2ccc(NS(=O)(=O)c3ccccc3)cc2CC1=O,i,i,i,i
COc1ccc(S(=O)(=O)N(C)C[C@H]2Oc3c(NS(=O)(=O)c4cn(C)cn4)cccc3C(=O)N([C@H](C)CO)C[C@H]2C)cc1,i,i,i,i
O=C(O)c1ccc(NCCCO)c([N+](=O)[O-])c1,i,i,i,i
COc1ccc(S(=O)(=O)N(C)C[C@@H]2Oc3ccc(NC(=O)Cc4ccccc4)cc3CC(=O)N([C@H](C)CO)C[C@@H]2C)cc1,i,i,i,i
Cc1noc(C)c1NC(=O)Nc1ccc2c(c1)CC(=O)N([C@H](C)CO)C[C@@H](C)[C@@H](CN(C)CC1CC1)O2,i,i,x,i
COC(=O)c1cc(O)cc(O)c1C(=O)c1c(O)cc(C)cc1O,i,i,i,i
CCCN(C)C[C@@H]1OCCCC[C@@H](C)Oc2ccc(NC(=O)Nc3ccc(F)cc3)cc2C(=O)N([C@H](C)CO)C[C@H]1C,i,i,x,i

High-throughput results: PubChem BioAssay, Broad Institute

An excerpt. The share of hits here may be higher or lower than overall.
